Screens deposited in PubChem by Broad Institute.
Ecoli rRNA inh: reduced GFP signal of wild-type E. coli, primary screen, bacterial rRNA inhibitor project, GFP/RFP fluorescence, OD600, single point | E. coli WT GFP vs humanized-ribosome RFP mutants, 24 h; active compounds read low; DMSO median 0, no signal -100 | GFP signal change (wild-type ribosome), % (concentration not given with the values) | 350,000 compounds, 1.6% hits;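 active = significant combined selectivity score with lowered wild-type GFP, culture density cut under 30%, mutant RFP and density less affected; inactive = any of these conditions unmet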; also: one replicate is shown; some compounds called inactive have numbers as strong as hits
MLL AF4-AF9 inh: inhibitors of AF4 peptide binding to AF9, primary screen, biochemical, AlphaScreen, biotin-AF4 peptide, FLAG-AF9, single point; Protein AF-9 (Homo sapiens), P42568; inhibition, % at 10 µM; 350,000 compounds, 0.47% hits; AID 651704, 2012;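 active = every replicate reaching a set inhibition limit, whatever the replicate mean, cut at about 25% in these data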;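 also: 0% = plate neutral control median and 100% = total signal loss; the record names both 10 and 1 µM as test concentration; the first replicate is given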
Target sequence (P42568 whole entry, looked up): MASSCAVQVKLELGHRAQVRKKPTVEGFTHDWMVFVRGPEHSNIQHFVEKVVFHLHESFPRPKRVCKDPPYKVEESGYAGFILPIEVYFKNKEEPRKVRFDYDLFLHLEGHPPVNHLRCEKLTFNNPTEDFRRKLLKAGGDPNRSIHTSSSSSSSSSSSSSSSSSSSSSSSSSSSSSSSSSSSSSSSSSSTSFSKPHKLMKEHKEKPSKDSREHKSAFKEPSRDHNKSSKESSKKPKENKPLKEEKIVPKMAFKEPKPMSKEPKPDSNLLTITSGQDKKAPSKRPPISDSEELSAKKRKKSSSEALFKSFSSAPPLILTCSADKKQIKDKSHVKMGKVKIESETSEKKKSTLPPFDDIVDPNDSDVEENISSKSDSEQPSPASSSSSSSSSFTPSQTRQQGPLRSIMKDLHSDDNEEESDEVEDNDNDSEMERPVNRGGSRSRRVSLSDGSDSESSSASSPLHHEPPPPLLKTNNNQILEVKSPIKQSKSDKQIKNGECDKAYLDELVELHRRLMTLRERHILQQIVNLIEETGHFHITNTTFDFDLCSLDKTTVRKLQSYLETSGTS
Ecoli rRNA inh OD600: recorded beside Ecoli rRNA inh, whose call it bears; OD600 change, %; measured here: OD600 growth;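 optical density of the mix in the first replicate; 0 = DMSO median and -100 = no signal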
Ecoli rRNA inh RFP: further read-out of Ecoli rRNA inh, marked with its call; RFP signal change, %; measured here: RFP humanized mutant strains;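 first replicate; 0 = DMSO median and -100 = no signal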
An asterisk follows results filed as active.

For Cc1ccc(S(=O)(=O)N(C)C[C@@H]2Oc3c(NS(=O)(=O)c4ccccc4)cccc3C(=O)N([C@@H](C)CO)C[C@H]2C)cc1 the results were Ecoli rRNA inh 1, MLL AF4-AF9 inh -0.6, Ecoli rRNA inh OD600 -3 and Ecoli rRNA inh RFP -0.9.
COCOc1ccc(-c2ncc(OC)nc2NC(=O)c2ccsc2)cc1 was read as Ecoli rRNA inh 12, MLL AF4-AF9 inh -6.7, Ecoli rRNA inh OD600 16 and Ecoli rRNA inh RFP 6.7.
For CCc1ccc2c(c1)NC(=O)C2(C)Cc1ccc(C(F)(F)F)o1 (configuration not stated) the results were Ecoli rRNA inh -61, MLL AF4-AF9 inh 0.9, Ecoli rRNA inh OD600 -79 and Ecoli rRNA inh RFP -20.
`CO[C@H]1CN(C)C(=O)c2ccc(NC(=O)C3CC3)cc2OC[C@@H](C)NC[C@@H]1C` gave Ecoli rRNA inh 3, MLL AF4-AF9 inh -3.0, Ecoli rRNA inh OD600 5 and Ecoli rRNA inh RFP -0.5.
For COc1cccc(CNC(=O)C[C@H]2C=C[C@@H](NC(=O)C3CCOCC3)[C@H](CO)O2)c1 the results were Ecoli rRNA inh 1, MLL AF4-AF9 inh -0.3, Ecoli rRNA inh OD600 -1 and Ecoli rRNA inh RFP -1.7.
For CCCCNC(=O)C(NC(=O)c1cnccn1)C(=O)c1ccccc1 (configuration not stated) the results were Ecoli rRNA inh -7, MLL AF4-AF9 inh -1.1, Ecoli rRNA inh OD600 3 and Ecoli rRNA inh RFP -4.3.
`CCC(=O)N(C)C[C@@H]1Oc2ncc(C3=CCCC3)cc2C(=O)N([C@H](C)CO)C[C@H]1C` gave Ecoli rRNA inh -2, MLL AF4-AF9 inh 1.2, Ecoli rRNA inh OD600 1 and Ecoli rRNA inh RFP -2.0.
`C[C@@H]1CN([C@@H](C)CO)C(=O)Cc2cc(NC(=O)C3CC3)ccc2O[C@@H]1CN(C)S(=O)(=O)c1cccs1` gave Ecoli rRNA inh 0, MLL AF4-AF9 inh -3.7, Ecoli rRNA inh OD600 2 and Ecoli rRNA inh RFP 0.7.
C/C=C/c1ccc([C@H]2[C@@H](CO)N(C(=O)C3CCCCC3)C23CN(C(=O)NC(C)C)C3)cc1 was read as Ecoli rRNA inh -1, MLL AF4-AF9 inh 3.2, Ecoli rRNA inh OD600 -1 and Ecoli rRNA inh RFP -0.6.
Screening CC(C)NC(=O)Nc1ccc2c(c1)CC(=O)N([C@H](C)CO)C[C@H](C)[C@@H](CN(C)Cc1ccc(Oc3ccccc3)cc1)O2 returned Ecoli rRNA inh -14, MLL AF4-AF9 inh 11, Ecoli rRNA inh OD600 -46 and Ecoli rRNA inh RFP 14.
Screening CCCN1C[C@H](C)[C@H](OC)CN(C)C(=O)c2ccc(NS(=O)(=O)c3ccccc3)cc2OC[C@@H]1C returned Ecoli rRNA inh 0, MLL AF4-AF9 inh -3.1, Ecoli rRNA inh OD600 2 and Ecoli rRNA inh RFP -1.4.
`COC(=O)c1ccc2nc(-c3cccc(Cl)c3)c(Cc3cccc(F)c3)n2c1` gave Ecoli rRNA inh -2, MLL AF4-AF9 inh 2.1, Ecoli rRNA inh OD600 -4 and Ecoli rRNA inh RFP 22.

Random excerpt: 5 entries already listed, in no set order.
C/C=C/c1ccc([C@H]2[C@@H](CO)N(C(=O)C3CCCCC3)C23CN(C(=O)NC(C)C)C3)cc1 was read as Ecoli rRNA inh -1, MLL AF4-AF9 inh 3.2, Ecoli rRNA inh OD600 -1 and Ecoli rRNA inh RFP -0.6.
`C[C@@H]1CN([C@@H](C)CO)C(=O)Cc2cc(NC(=O)C3CC3)ccc2O[C@@H]1CN(C)S(=O)(=O)c1cccs1` gave Ecoli rRNA inh 0, MLL AF4-AF9 inh -3.7, Ecoli rRNA inh OD600 2 and Ecoli rRNA inh RFP 0.7.
`CO[C@H]1CN(C)C(=O)c2ccc(NC(=O)C3CC3)cc2OC[C@@H](C)NC[C@@H]1C` gave Ecoli rRNA inh 3, MLL AF4-AF9 inh -3.0, Ecoli rRNA inh OD600 5 and Ecoli rRNA inh RFP -0.5.
Screening CCCN1C[C@H](C)[C@H](OC)CN(C)C(=O)c2ccc(NS(=O)(=O)c3ccccc3)cc2OC[C@@H]1C returned Ecoli rRNA inh 0, MLL AF4-AF9 inh -3.1, Ecoli rRNA inh OD600 2 and Ecoli rRNA inh RFP -1.4.
For CCCCNC(=O)C(NC(=O)c1cnccn1)C(=O)c1ccccc1 (configuration not stated) the results were Ecoli rRNA inh -7, MLL AF4-AF9 inh -1.1, Ecoli rRNA inh OD600 3 and Ecoli rRNA inh RFP -4.3.

Going on with the list.
For C[C@H]1CN([C@@H](C)CO)C(=O)Cc2cc(NC(=O)CCCCCC(=O)Nc3ccccc3N)ccc2O[C@@H]1CN(C)Cc1ccc2c(c1)OCO2 the results were Ecoli rRNA inh -6, MLL AF4-AF9 inh -0.9, Ecoli rRNA inh OD600 -2 and Ecoli rRNA inh RFP 0.4.
For C[C@@H]1CCCCO[C@H](CN(C)C(=O)CCC(F)(F)F)[C@@H](C)CN([C@@H](C)CO)C(=O)c2cc(NS(=O)(=O)c3ccc(F)cc3)ccc2O1 the results were Ecoli rRNA inh 0, MLL AF4-AF9 inh 3.8, Ecoli rRNA inh OD600 -9 and Ecoli rRNA inh RFP 3.1.
`C[C@H](CO)N1C[C@H](C)[C@@H](CN(C)C(=O)CN(C)C)Oc2cc(-c3cncnc3)ccc2S1(=O)=O` gave Ecoli rRNA inh 7, MLL AF4-AF9 inh -3.4, Ecoli rRNA inh OD600 20 and Ecoli rRNA inh RFP -3.6.
`COc1ccc(OC)c(NC(=O)C2(C)CCN2CCOc2ccccc2)c1` (configuration not stated) gave Ecoli rRNA inh -7, MLL AF4-AF9 inh 3.1, Ecoli rRNA inh OD600 -14 and Ecoli rRNA inh RFP -9.7.
For CN(C)C(=O)C[C@@H]1CC[C@H]2[C@@H](COC[C@@H](O)CN2CC2CC2)O1 the results were Ecoli rRNA inh 1, MLL AF4-AF9 inh -2.3, Ecoli rRNA inh OD600 9 and Ecoli rRNA inh RFP -5.7.
`O=C(C[C@H]1C=C[C@H](NC(=O)CCN2CCCCC2)[C@H](CO)O1)Nc1ccccc1` gave Ecoli rRNA inh 0, MLL AF4-AF9 inh -0.7, Ecoli rRNA inh OD600 5 and Ecoli rRNA inh RFP 0.0.
`COc1cc(/C=C/C(=O)OCC(=O)N2CCN(S(=O)(=O)c3ccc(C)cc3C)CC2)ccc1OC(F)F` gave Ecoli rRNA inh 3, MLL AF4-AF9 inh -2.2, Ecoli rRNA inh OD600 1 and Ecoli rRNA inh RFP -3.2.
Cc1noc(C)c1NC(=O)Nc1ccc2c(c1)C(=O)N([C@@H](C)CO)C[C@@H](C)[C@@H](CN(C)S(=O)(=O)c1ccc(F)cc1)OCCCC[C@H](C)O2 was read as Ecoli rRNA inh 1, MLL AF4-AF9 inh -0.6, Ecoli rRNA inh OD600 2 and Ecoli rRNA inh RFP 1.3.
O=C(Nc1ccc(F)cc1)N[C@@H]1CC[C@@H](CCNS(=O)(=O)c2cccc(Cl)c2)O[C@@H]1CO was read as Ecoli rRNA inh 0, MLL AF4-AF9 inh -14, Ecoli rRNA inh OD600 -6 and Ecoli rRNA inh RFP -1.1.
For CCN(C[C@@H]1[C@@H](c2ccccc2)[C@H](CO)N1CC1CCCC1)C(C)=O the results were Ecoli rRNA inh 0, MLL AF4-AF9 inh -0.9, Ecoli rRNA inh OD600 -5 and Ecoli rRNA inh RFP -1.4.
For Cc1nc(Nc2ncc3c(n2)CC(C)(C)CC3=O)nc2ccccc12 the results were Ecoli rRNA inh 13, MLL AF4-AF9 inh -7.6, Ecoli rRNA inh OD600 6 and Ecoli rRNA inh RFP -2.5.
CNC[C@@H]1Oc2ccc(NS(=O)(=O)c3ccc(OC)cc3)cc2C(=O)N([C@H](C)CO)C[C@H]1C was read as Ecoli rRNA inh 2, MLL AF4-AF9 inh -2.4, Ecoli rRNA inh OD600 -7 and Ecoli rRNA inh RFP -1.1.
`C[C@@H]1CCCCO[C@@H](CN(C)C(=O)c2ccccc2)[C@@H](C)CN([C@H](C)CO)C(=O)c2cc(NC(=O)c3ccccc3)ccc2O1` gave Ecoli rRNA inh 1, MLL AF4-AF9 inh -0.1, Ecoli rRNA inh OD600 2 and Ecoli rRNA inh RFP -2.9.
`CCCC#Cc1cnc2c(c1)C(=O)N([C@@H](C)CO)C[C@H](C)[C@H](CN(C)C(=O)C1CC1)O2` gave Ecoli rRNA inh 6, MLL AF4-AF9 inh -3.5, Ecoli rRNA inh OD600 15 and Ecoli rRNA inh RFP -2.1.
CCS(=O)(=O)NCC[C@H]1CC[C@H](NC(=O)Cc2ccccn2)[C@H](CO)O1 was read as Ecoli rRNA inh 1, MLL AF4-AF9 inh -3.7, Ecoli rRNA inh OD600 8 and Ecoli rRNA inh RFP -1.0.
For CCCNC(=O)N1C[C@H](O)COC[C@H]2O[C@@H](CC(=O)OC)CC[C@@H]21 the results were Ecoli rRNA inh 6, MLL AF4-AF9 inh -3.1, Ecoli rRNA inh OD600 5 and Ecoli rRNA inh RFP 0.1.
For CCS(=O)(=O)N1CCC2(CC1)CN(C(=O)c1cccc(F)c1)[C@H](CO)c1c2c2ccc(OC)cc2n1C the results were Ecoli rRNA inh 1, MLL AF4-AF9 inh -0.4, Ecoli rRNA inh OD600 7 and Ecoli rRNA inh RFP -0.8.
`C[C@@H]1CN([C@@H](C)CO)C(=O)c2cc(C#CC(C)(C)O)cnc2O[C@H]1CN(C)C(=O)C1CCOCC1` gave Ecoli rRNA inh 6, MLL AF4-AF9 inh 1.9, Ecoli rRNA inh OD600 8 and Ecoli rRNA inh RFP -6.2.
Screening COc1ccccc1C#Cc1ccc2c(c1)[C@@H]1[C@@H](CCN1C(=O)CN1CCOCC1)[C@H](CO)N2 returned Ecoli rRNA inh -2, MLL AF4-AF9 inh 13, Ecoli rRNA inh OD600 12 and Ecoli rRNA inh RFP -3.2.
`C[C@@H]1CN([C@H](C)CO)C(=O)c2cccc(NS(C)(=O)=O)c2O[C@H]1CN(C)Cc1ccc(C(F)(F)F)cc1` gave Ecoli rRNA inh -1, MLL AF4-AF9 inh 1.3, Ecoli rRNA inh OD600 -6 and Ecoli rRNA inh RFP -0.2.
`COc1cccc(CN2CC3(C2)CN(C(=O)C2CC2)[C@@H](CO)c2c3c3ccc(OC)cc3n2C)c1` gave Ecoli rRNA inh -2, MLL AF4-AF9 inh 26*, Ecoli rRNA inh OD600 -9 and Ecoli rRNA inh RFP 9.9.
`O=C1NC(O)CCN1C1CC(O)C(CO)O1` (configuration not stated) gave Ecoli rRNA inh 1, MLL AF4-AF9 inh -2.5, Ecoli rRNA inh OD600 -3 and Ecoli rRNA inh RFP -2.3.
For Nc1[nH]c(C(=O)c2ccccc2)c(-c2cccnc2)c1C(=O)c1ccccc1 the results were Ecoli rRNA inh -2, MLL AF4-AF9 inh 3.6, Ecoli rRNA inh OD600 4 and Ecoli rRNA inh RFP 5.0.
O=S1(=O)CCSC[C@@H](CN2CCOCC2)N1 was read as Ecoli rRNA inh 13, MLL AF4-AF9 inh -2.5, Ecoli rRNA inh OD600 11 and Ecoli rRNA inh RFP 3.3.
For CCC(=O)N1[C@@H]2c3cccc(=O)n3C[C@H]1[C@H](CO)[C@H]2C(=O)NC1CCCC1 the results were Ecoli rRNA inh -1, MLL AF4-AF9 inh -2.7, Ecoli rRNA inh OD600 10 and Ecoli rRNA inh RFP 1.1.
For COc1ccc2c3c([nH]c2c1)[C@H](CO)N(C(=O)NC(C)C)CC31CN(C(=O)NC(C)C)C1 the results were Ecoli rRNA inh 3, MLL AF4-AF9 inh -2.1, Ecoli rRNA inh OD600 8 and Ecoli rRNA inh RFP 2.2.
For COc1cccc(-c2ccc3c(c2)O[C@H](CN(C)C(=O)C2CCC2)[C@H](C)CN([C@@H](C)CO)S3(=O)=O)c1 the results were Ecoli rRNA inh -6, MLL AF4-AF9 inh 1.1, Ecoli rRNA inh OD600 -2 and Ecoli rRNA inh RFP -5.5.
Cc1ccc(S(=O)(=O)N(C)C[C@@H]2Oc3ccc(NC(=O)CCCN(C)C)cc3C(=O)N([C@H](C)CO)C[C@@H]2C)cc1 was read as Ecoli rRNA inh 3, MLL AF4-AF9 inh 1.6, Ecoli rRNA inh OD600 11 and Ecoli rRNA inh RFP -0.4.
For COc1ccc(S(=O)(=O)N[C@H]2C=C[C@@H](CC(=O)NCc3ccccc3F)O[C@@H]2CO)cc1 the results were Ecoli rRNA inh -1, MLL AF4-AF9 inh -12, Ecoli rRNA inh OD600 -3 and Ecoli rRNA inh RFP -1.1.
`CCOC(=O)Cc1csc2nc(-c3ccccc3)cn12` gave Ecoli rRNA inh -5, MLL AF4-AF9 inh 0.0, Ecoli rRNA inh OD600 -4 and Ecoli rRNA inh RFP 6.4.
`Cc1ccccc1S(=O)(=O)N1[C@@H]2Cn3c(cccc3=O)[C@H]1[C@@H](C(=O)N1CCOCC1)[C@@H]2CO` gave Ecoli rRNA inh 3, MLL AF4-AF9 inh -1.1, Ecoli rRNA inh OD600 -2 and Ecoli rRNA inh RFP -5.0.
`CO[C@H]1CN(C)C(=O)c2ccc(NC(=O)NC(C)C)cc2OC[C@H](C)N(Cc2ccccc2)C[C@H]1C` gave Ecoli rRNA inh 2, MLL AF4-AF9 inh 4.4, Ecoli rRNA inh OD600 -14 and Ecoli rRNA inh RFP 5.5.

Not all compounds are listed, so the mix of outcomes need not match the whole.
